# eIF4H FP inh: inhibitors of RNA binding by human eIF4H. eIF4H fluorescence polarization binding assay. inhibition, % at 35 µM. 290,000 tested, 0.94% active. AID 2012;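 active means 50% or more with normal probe brightness, or confirmed in later tests; about a fifth of its hits are not listed in these tables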;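 further: calls also rest on retests at 20 µM and on dose response follow-up; 0% = protein and probe with vehicle and 100% = probe without protein; strong numbers were not always called active; many hits fall short of the cut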
# UUG fidelity: yeast start codon fidelity modulation. AID 602363. 350,000 tested, 0.13% active. S. cerevisiae UUG-firefly luciferase reporter, luminescence/redox ratio. activity score, % at 18.7 µM;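 active means replicate mean at a twofold rise or more, about +100% in these data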;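 further: firefly luciferase made from a UUG start codon reports start codon fidelity; reporter light over untreated wells divided by growth signal over untreated wells; some hits fall short of that in this replicate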
# Rce1 inhib: inhibitors of yeast Ras-converting enzyme. Q03530. yeast membranes, quenched prenylated peptide cleavage fluorescence. calls only. 290,000 tested, 0.27% active;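 active means fall in fluorescence gain of 50% or more versus controls, with final raw signal at or below 3038400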;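 further: plate controls were neutral control wells for no effect and wells lacking membranes for full effect; tested at 10 µM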
# Target sequence (Q03530 whole entry, looked up): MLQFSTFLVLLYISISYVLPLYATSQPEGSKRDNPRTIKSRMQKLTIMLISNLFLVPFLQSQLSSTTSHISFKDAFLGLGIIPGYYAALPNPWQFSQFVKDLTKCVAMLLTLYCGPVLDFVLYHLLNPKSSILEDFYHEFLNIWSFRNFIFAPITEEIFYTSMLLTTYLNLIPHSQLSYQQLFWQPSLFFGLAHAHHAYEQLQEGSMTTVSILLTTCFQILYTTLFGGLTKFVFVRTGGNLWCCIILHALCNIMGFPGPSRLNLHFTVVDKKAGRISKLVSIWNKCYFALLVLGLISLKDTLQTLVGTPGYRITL
# MT1-MMP act inh: MT1-MMP (human) activation inhibition; HT1080 RFP-PRO-GFP cells, GFP/RFP ratio fluorescence, overnight; percent of plate control window, DMSO zero; GFP/RFP ratio change, % at 20 µM; 360,000 tested, 0.061% active; AID 651647; P50281;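 active means GFP/RFP ratio change of at least 30% with cell ATP level not reduced by more than half and red fluorescence within 50% of control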; further: strong numbers were not always called active
#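 Assay system – RFP-PRO-GFP reporter HT1080 cells · Compound dosing – single dose of 20 µM compound, 1% DMSO final · Incubation – overnight compound exposure at 37 °C · Measure – GFP/RFP fluorescence ratio · Benchmarks – DMSO wells and RFP-L50D-GFP cells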
# HIV Env fusion: inhibitors of HIV Env-mediated cell fusion; HeLa-JRFL Env/CEM21 cell fusion, luciferase; inhibition, % at 12.3 µM; 360,000 tested, 1.1% active; AID 651610;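 active means mean replicate inhibition score of at least 50 and every replicate individually at or above 50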;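 further: 0% = plate neutral controls and 100% = maraviroc near 300 nM; one replicate is shown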
# CSC inhib: blocks cancer stem cells | cancer stem cell-like cells viability, luminescence | AID 2717 | 300,000 tested, 1.1% active | inhibition, % at 7.5 µM;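 active means mean at 75% or more and at least half the replicates too; tested in HMLE shEcad cells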;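 further: 0% = median of negative and 100% = median of positive control wells; the first replicate is given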
# PABP polyA inh: blocks human PABP binding to poly(A) RNA; P11940; fluorescence polarization; inhibition, % at 35 µM; 290,000 tested, 1% active; AID 2014;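 active means 50% or more with normal probe brightness, or confirmed in later tests; about a fifth of its hits are not listed in these tables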;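 further: calls also rest on retests at 20 µM and on dose response follow-up; controls were probe without protein and protein plus probe with vehicle; some compounds called inactive have numbers as strong as hits; many hits fall short of the cut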
# Target sequence (P11940 whole entry, looked up): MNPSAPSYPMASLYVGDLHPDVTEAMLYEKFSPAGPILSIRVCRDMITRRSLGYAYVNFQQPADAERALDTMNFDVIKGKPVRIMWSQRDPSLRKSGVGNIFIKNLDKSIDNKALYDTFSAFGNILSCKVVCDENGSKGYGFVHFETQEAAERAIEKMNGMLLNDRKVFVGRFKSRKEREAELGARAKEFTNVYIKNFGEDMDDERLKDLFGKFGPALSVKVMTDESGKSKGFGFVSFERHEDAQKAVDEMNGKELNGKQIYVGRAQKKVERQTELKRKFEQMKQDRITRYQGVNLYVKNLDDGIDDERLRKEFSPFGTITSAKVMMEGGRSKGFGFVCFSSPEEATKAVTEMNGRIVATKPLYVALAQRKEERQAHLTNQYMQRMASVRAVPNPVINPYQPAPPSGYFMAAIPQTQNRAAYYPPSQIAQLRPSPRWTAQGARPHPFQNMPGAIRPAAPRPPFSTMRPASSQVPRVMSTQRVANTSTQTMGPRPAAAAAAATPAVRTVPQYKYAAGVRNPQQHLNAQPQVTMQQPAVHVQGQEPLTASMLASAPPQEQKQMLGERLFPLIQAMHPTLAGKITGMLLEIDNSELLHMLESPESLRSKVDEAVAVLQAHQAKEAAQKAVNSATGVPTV
# eIF4H FP inh retest: also measured in eIF4H FP inh; calls as there; inhibition, %; compound at 20 µM; confirmation average;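 mean of two retest wells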
# PABP polyA inh retest: recorded beside PABP polyA inh, whose call it bears; inhibition, %; compound at 20 µM; confirmation repeats;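 mean of two retest wells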
# MT1-MMP act inh RFP: recorded beside MT1-MMP act inh, whose call it bears; RFP signal change, %; measured here: RFP expression control read;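 0 = vehicle wells; hits needed this value within 50% of zero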
# Active calls of the source: *; i = inactive; . = not tested or not shown; & = joins results of further samples. This is a subset; count on the stated rates, not on these rows.
SMILES,eIF4H FP inh,UUG fidelity,Rce1 inhib,MT1-MMP act inh,MT1-MMP act inh RFP,HIV Env fusion,CSC inhib,PABP polyA inh,others
CCOC(=O)C1C(=O)C=C(c2ccc(OC)cc2)CC1c1ccco1 (centres undefined),-3,-18,i,1,4,.,0,1,
COC(=O)[C@@H]1C[C@H]2CC[C@H](O)C[C@H]2N1Cc1ccc(C(C)(C)C)cc1,-5,-4,i,3,6,23,8,5,
Cc1ccc(CC2C(=O)N(c3ccccc3)C(=O)C2C)cc1 (centres undefined),43,-34,i,5,9,3,-12,14,
O=C(COC(=O)C1(c2ccc(F)cc2)CCCC1)NC1CC1,-14,3,i,-1,3,-58,-4,-1,
c1ccc(-c2noc(CC3CCCCC3)n2)cc1,-2,4,i,5,3,-15,-2,3,
COc1ccc(N=CC2=C(O)CC(C)(C)CC2=O)cc1OC,-16,.,i,-3,1,-3,-13,2,
CC(=O)N1c2ccc(S(=O)(=O)N3CCC(C(=O)NCc4ccc(N(C)C)cc4)CC3)cc2CC1C (centres undefined),.,-16,i,3,-7,-1,-13,.,
CCOc1ccc(C(=O)N/N=C/c2ccc(-c3ccc(S(=O)(=O)Nc4ncccn4)cc3)o2)cc1,69*,.,i,5,2,8,-4,32*,eIF4H FP inh retest=80*;PABP polyA inh retest=54*
Cc1cc(C(=O)N/N=C/c2ccc(-c3ccc([N+](=O)[O-])cc3C)o2)n[nH]1,-2,-16,i,-5,-3,5,-4,9,
O=c1[nH]c(NNC(=S)NCc2ccccc2)nc2c1C1(CCCCC1)Cc1ccccc1-2,12,.,i,3,2,-2,106*,0,

# The closing six records of the part above come first, to join the parts:
SMILES,eIF4H FP inh,UUG fidelity,Rce1 inhib,MT1-MMP act inh,MT1-MMP act inh RFP,HIV Env fusion,CSC inhib,PABP polyA inh,others
c1ccc(-c2noc(CC3CCCCC3)n2)cc1,-2,4,i,5,3,-15,-2,3,
COc1ccc(N=CC2=C(O)CC(C)(C)CC2=O)cc1OC,-16,.,i,-3,1,-3,-13,2,
CC(=O)N1c2ccc(S(=O)(=O)N3CCC(C(=O)NCc4ccc(N(C)C)cc4)CC3)cc2CC1C (centres undefined),.,-16,i,3,-7,-1,-13,.,
CCOc1ccc(C(=O)N/N=C/c2ccc(-c3ccc(S(=O)(=O)Nc4ncccn4)cc3)o2)cc1,69*,.,i,5,2,8,-4,32*,eIF4H FP inh retest=80*;PABP polyA inh retest=54*
Cc1cc(C(=O)N/N=C/c2ccc(-c3ccc([N+](=O)[O-])cc3C)o2)n[nH]1,-2,-16,i,-5,-3,5,-4,9,
O=c1[nH]c(NNC(=S)NCc2ccccc2)nc2c1C1(CCCCC1)Cc1ccccc1-2,12,.,i,3,2,-2,106*,0,
CC1=C(C(=O)N(C)C)CC(CC(=O)NCc2cccs2)C(=O)N1Cc1ccc(C(C)(C)C)cc1 (centres undefined),.,-1,.,5,2,-6,.,.,
COc1ccc(NC(=O)C2CC(=O)n3c(nc4ccccc43)N2)cc1 (centres undefined),-11,-8,i,1,-1,-31,3,3,
CN1OC[C@@H]2CN[C@H](c3cccc(-c4ccc(C#N)cc4)c3)C[C@@H]21,.,-9,.,4,2,-5,.,.,
CCn1c(=O)cc(SCC(=O)Nc2ccc3c(c2)OCCO3)c2ccccc21,-5,-11,i,13,-1,4,-1,-6,
CCc1cc2c(N[C@@H](Cc3c[nH]c4ccccc34)C(=O)O)ncnc2s1,4,.,i,0,1,.,2,27,
CCN(CC)C(=O)CSc1nnc(COc2ccccc2)n1N,-1,.,i,4,-5,5,-4,4,
CCN1CCN(Cc2ccc(C(=O)Nc3ccc(C)c(NCc4cnc(NC(=O)OC)cn4)c3)cc2C(F)(F)F)CC1,-13,0&-1,i,1&6,-2&0,25,-13,-5,
O=C1CCCc2c1ccc1ccccc21,.,-8,.,-2,-2,-11,.,.,
CCOC(=O)C(CCCCCOc1ccc([N+](=O)[O-])cc1)C(=O)OCC,-6,-19,i,7,-13,0,-10,6,
CCOC(=O)C=Nc1c(N)n(C)c(=O)n(C)c1=O,9,-8,i,-4,-1,-71,-2,-1,
CCOc1ccc(C(=O)N[C@H](C(=O)NNC(=O)c2cccs2)C(C)C)cc1,.,5,.,-1,1,-22,-13,.,
CC(=O)N1CCN(c2ccc(NC(=O)c3ccco3)cc2)CC1,-1,.,i,0,2,2,-10,13,
O=C(CCl)N1CCCC1c1ccc2c(c1)OCCO2 (centres undefined),4,-3,i,1,-1,0,-2,-1,
Fc1cccc(CSc2ncnc3c2oc2ccccc23)c1,2,-13,i,0,4,-20,-1,-5,
CC1CCCN(CC(=O)Nc2ccc(S(=O)(=O)N3CCCC3)cc2)C1 (centres undefined),-1,-4,i,1,0,-12,-8,15,
Cc1ccccc1NC(=S)NC(=O)COc1ccccc1C,-5,-19,i,-2,0,-8,-2,-2,
Cc1ccc(S(=O)(=O)N(C)c2c(C)ccc(S(=O)(=O)Nc3ccncc3)c2C)cc1,-3,.,i,0,-4,-8,-24,-12,
CC(=O)Nc1ccc(S(=O)(=O)NC2(C(F)(F)F)C(=O)Nc3c2c(=O)[nH]c(=O)n3Cc2cccnc2)cc1 (centres undefined),-2,-11,i,-4,-3,0,-7,0,
O=C(NC1CCCCCC1)c1ccc[nH]c1=S,3,-23,i,6,-1,-2,3,-6,
Cc1ccc(C(=O)C(NC(=O)c2ccco2)Nc2sc3c(c2C(N)=O)CCCC3)cc1 (centres undefined),15,.,i,.,.,.,6,7,
Cc1ccc(Cn2nnc3c(=O)[nH]c(C4CCCN(S(=O)(=O)c5ccccc5F)C4)nc32)cc1 (centres undefined),-9,-9,i,-1,-4,-1,-4,1,
CC(=O)Nc1nc2ccccc2n1CCOc1ccccc1Cl,-2,-16,i,10,-9,-61,31,-8,
O=c1cc(NCCCO)c2ccccc2o1,0,-17,i,6,4,-45,3,-10,
COc1ccc(S(=O)(=O)N2CCC(C(=O)NC3CCCC3)CC2)cc1OC,9,-18,i,-2,1,1,-2,-1,
Cc1ccc(-c2csc(NCCn3c(C(F)(F)F)nc4ccccc43)n2)cc1,0,-13,i,1,-7,-53,21,-12,
Cc1cc(C)n(CCCNC(=O)c2cc(COc3ccc(C)c(C)c3)on2)n1,-2,-1,i,-2,-2,-29,-1,-7,
O=C(CSCc1ccc([N+](=O)[O-])cc1)Nc1cccc(C(=O)Nc2ccccc2C(=O)O)c1,-1,-3,i,2,5,.,6,20,
O=C(N/N=C/c1ccc([N+](=O)[O-])cc1)c1cccs1,-10,-1,.,-1,-2,-49,-2,1,
COc1cccc(NC(=O)N2CCN(c3cccc(C)c3)C(C)C2)c1 (centres undefined),9,.,i,0,-4,.,-12,16,
COc1ccc(N2CCN(Cc3nc4c(c(=O)[nH]c(=O)n4C)n3Cc3cccc(Cl)c3)CC2)cc1,2,-20,i,-10,-5,4,-14,9,
CCOC(=O)C(C)n1nc(/C=C/c2ccccc2)ccc1=O (centres undefined),-6,-4,i,6,5,.,.,5,
CCCNC(=O)C1CN(S(=O)(=O)c2ccc(Cl)s2)c2ccccc2O1 (centres undefined),.,-12,.,-2,3,19,.,.,
Nc1cc(Cl)ccc1C(=O)OCC(=O)N1CCOCC1,-9,1,i,-2,2,-28,9,-1,
O=C(NCc1ccccc1Cl)c1cccc(NC(=O)c2ccccc2)c1,2,-13,i,-3,-5,0,21,5,
COc1ccc(F)cc1S(=O)(=O)Nc1ccc2c(c1)OCO2,-4,-6,i,4,1,.,-17,-4,
C=Cc1cccc(NC(=O)COc2ccccc2)c1,0,4,i,5,6,.,5,0,
CNC[C@@H]1OCc2ccccc2-c2ccccc2C(=O)N([C@@H](C)CO)C[C@@H]1C,.,-11,.,1,3,-13,.,.,
COc1ccc(N(Cc2ccc(N(C)C)cc2)C(=O)c2ccc(S(C)(=O)=O)cc2)cc1,-3,-1,i,5,0,-12,-5,-2,
COc1ccc(NC(=O)c2cc(C(=O)Nc3ccc(OC)cc3OC)cc([N+](=O)[O-])c2)c(OC)c1,0,-9,i,2,3,-11,-14,1,
Nc1nc(SCC(=O)Nc2ccc(OC(F)(F)F)cc2)[nH]c(=O)c1NC(=O)c1ccc(Br)o1,6,-14,i,1,-1,-6,22,2,
Cc1ccc2cccc(S(=O)(=O)N3CCN(c4ccccc4F)CC3)c2n1,-3,.,i,-3,1,.,.,6,
CC(c1ccco1)N(Cc1ccco1)C(=O)Nc1ccccc1 (centres undefined),-2,-10,i,-1,4,.,-6,-3,
CCOc1cc(CNCc2ccccn2)ccc1OCC(=O)NC(C)(C)C,-10,.,i,1,-4,.,6,-5,
CC(C)NC(=O)N(C)C[C@H]1OCCCC[C@H](C)Oc2ccc(NC(=O)NC3CCCCC3)cc2C(=O)N([C@H](C)CO)C[C@@H]1C,.,27&4,.,-1,6,-40,.,.,
CN(CC(=O)Nc1ccc(C#N)cc1)Cc1ccc(Cl)cc1Cl,7,-11,.,2,1,-25,-11,0,
C/C(CC(=O)Nc1cccc(Cl)c1C)=N\NC(=O)C(=O)NCC(C)C,2,.,i,2,5,14,-9,10,
CC(NC(=O)NC12CC3CC(CC(C3)C1)C2)C1CCCO1 (centres undefined),-5,-18,i,7,7,-69,2,-5,
CS(=O)(=O)c1cc(C(=O)O)cc(NCc2ccccc2)c1Oc1ccccc1,.,13,.,1,-4,-20,.,.,
COc1ccc(-c2cc3nc(C)cc(N4CC(C)CC(C)C4)n3n2)cc1 (centres undefined),-6,-11,i,-3,-5,.,17,-4,
CSc1nnc(C)c(=O)n1COC(=O)COc1ccc2ccccc2c1,2,.,i,4,6,-2,-9,3,

# (list continues)
SMILES,eIF4H FP inh,UUG fidelity,Rce1 inhib,MT1-MMP act inh,MT1-MMP act inh RFP,HIV Env fusion,CSC inhib,PABP polyA inh,others
COc1ccccc1CNC(=O)CCS(=O)(=O)c1ccc2c(c1)CCCN2C(C)=O,0,-10,i,0,-1,.,-15,-8,
CCSc1nsc(NC(=O)Nc2ccccc2F)n1,-4,-2,i,2,-13,-87,7,9,
COc1cc(/C=N/NC(=O)CCNC(=O)c2ccccc2Cl)ccc1O,-2,.,i,4,3,-4,-9,2,
Cc1ccc(S(=O)(=O)CC(O)CN2CCCC2=O)cc1 (centres undefined),3,-9,i,5,4,-34,-13,-8,
Cn1cc(/C=N/NC(=O)c2cc3cc(Br)ccc3o2)c2ccccc21,20,2,i,1,5,-7,31,36,
CC(=O)N1CCN(C(=O)CNC(=O)c2ccc(C)s2)CC1,.,-12,.,0,4,-2,.,.,
COc1ccc(C2CC(=O)C(C(c3ccc(O)cc3)C3C(=O)CC(c4ccc(OC)cc4)CC3=O)C(=O)C2)cc1 (centres undefined),6,.,i,.,.,.,6,6,
COc1nc(OCCNC(=O)Nc2ccccc2)nc(N(C)C)n1,-3,-11,i,5,7,.,8,-5,
CN1CCN(CCOc2ccc(Cl)c(Cl)c2)CC1,0,-12,i,1,4,4,35,-5,
CC1CCc2c(sc3[nH]c(=S)n(C)c(=O)c23)C1 (centres undefined),-1,-5,i,-2,-3,10,15,-5,
CC(=O)Nc1ccc(NC(=O)C(=O)NCC(c2ccco2)N2CCc3ccccc32)cc1 (centres undefined),.,1,i,0,-5,.,43,.,
COc1cc(/C=N/NC(=O)c2ccccn2)ccc1OC(=O)c1cccs1,1,-24,i,3,3,-8,-10,2,
Cc1nc2ccc(S(=O)(=O)NC(CC(C)C)C(=O)O)cc2s1 (centres undefined),-2,-10,i,0,2,.,-16,2,
COc1ccc(OC(C)C(=O)Nc2ccc([N+](=O)[O-])cc2)cc1 (centres undefined),2,1,i,1,-3,-4,1,10,
CC(OC(=O)c1ccc(O)cc1)C(=O)Nc1ccc(Oc2ccccc2)cc1 (centres undefined),.,-16,.,8,-2,4,-17,.,

# Assay outcomes: PubChem, several laboratories
